Assay outcomes (PubChem)
Calb FLC: C. albicans growth inhibition with fluconazole, primary screen, CaCi-2 strain, Alamar Blue fluorescence; growth inhibition, % (concentration not given with the values); C. albicans CaCi-2 (fluconazole-resistant clinical isolate) + fluconazole, 48 h; 300,000 compounds, 0.57% hits; AID 1979, 2009;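 active means most replicates above 75%; inconclusive means exactly half above 75%; inactive means most below 75%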;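 further: all wells also contain fluconazole at 8 µg/ml as a sub-toxic cotreatment; 0% = median of DMSO wells and 100% = median of geldanamycin control wells; wells of about 8 µL received 7.5 nL stock; the first replicate is given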
FGF22 binding: binders of human FGF22 protein, primary screen, FGF22 synaptogenesis inhibitor project, biophysical, thermal shift, single point; AID 651658, 2012; 340,000 compounds, 1.5% hits; Fibroblast growth factor 22 (Homo sapiens), Q9HCT0; calls only at 9.99 µM; recombinant FGF22 thermal shift, SYPRO orange fluorescence; percent of sucrose octasulfate shift, DMSO zero;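 active means melting point raised past a set limit in the mean and every replicate; inconclusive means no clear call; three in four hits are not shown here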
Target sequence (Q9HCT0 whole entry, looked up): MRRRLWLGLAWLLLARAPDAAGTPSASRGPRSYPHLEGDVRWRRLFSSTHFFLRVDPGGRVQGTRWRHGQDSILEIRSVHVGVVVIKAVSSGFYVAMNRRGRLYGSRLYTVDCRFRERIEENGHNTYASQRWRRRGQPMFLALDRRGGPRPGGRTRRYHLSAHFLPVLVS
T cruzi inh: inhibitors of intracellular T. cruzi growth, primary screen, luminescence, NIH3T3 host cells; T. cruzi beta-gal in NIH3T3, 90 h; inhibition, % (concentration not given with the values); 300,000 compounds, 1.4% hits; AID 1885, 2009;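 active means mean inhibition across valid replicates above about 55%, limit read from the data; inconclusive means mean below that limit but half or more replicates reach it; inactive means mean below it, under half of replicates reach it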;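 further: signal also drops with host cell toxicity which is not excluded here; 0% = plate median of DMSO wells and 100% = zero luminescence signal; higher percent means less beta-gal luminescence so fewer parasites; stock transfer was 50 nL into about 50 µL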
rRNA inh HTS: reduced GFP signal of wild-type E. coli, primary screen, bacterial rRNA inhibitor project, GFP/RFP fluorescence, OD600, single point; AID 720706, 2013; GFP signal change (wild-type ribosome), % (test concentration not listed); E. coli WT GFP vs humanized-ribosome RFP mutants, 24 h; stronger effect = lower value; DMSO median 0, no signal -100; 350,000 compounds, 1.6% hits;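 active means significant combined selectivity score with lowered wild-type GFP, culture density cut under 30%, mutant RFP and density less affected; inactive means any of these conditions unmet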; further: one replicate is shown; some compounds called inactive have numbers as strong as hits
Beta apoptosis: inhibitors of cytokine-induced beta cell apoptosis, primary screen, luminescence; INS-1E cytokine-induced death, ATP luminescence, 48 h; percent of positive-control rescue, neutral wells zero; protection from apoptosis, % (test concentration not listed); 300,000 compounds, 0.8% hits; AID 435005, 2010;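 active means all replicates at 75% or more, or half of them and the mean; inconclusive means half reach 75% but not the mean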;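 further: 0% = cytokine-treated negative control wells and 100% = positive control rescue; higher means more ATP so stronger rescue from cytokine killing; wells of about 40 µL received 100 nL stock; the first replicate is given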
AF4-AF9 inh: inhibitors of AF4 peptide binding to AF9, primary screen, biochemical, AlphaScreen, biotin-AF4 peptide, FLAG-AF9, single point; AID 651704, 2012; Protein AF-9 (Homo sapiens), P42568; 350,000 compounds, 0.47% hits; inhibition, % at 10 µM;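 active means every replicate reaching a set inhibition limit, whatever the replicate mean, cut at about 25% in these data; inconclusive means mean inhibition reaches that limit but some replicates miss it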;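 further: 0% = plate neutral control median and 100% = total signal loss; the record names both 10 and 1 µM as test concentration; the first replicate is given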
Target sequence (P42568 whole entry, looked up): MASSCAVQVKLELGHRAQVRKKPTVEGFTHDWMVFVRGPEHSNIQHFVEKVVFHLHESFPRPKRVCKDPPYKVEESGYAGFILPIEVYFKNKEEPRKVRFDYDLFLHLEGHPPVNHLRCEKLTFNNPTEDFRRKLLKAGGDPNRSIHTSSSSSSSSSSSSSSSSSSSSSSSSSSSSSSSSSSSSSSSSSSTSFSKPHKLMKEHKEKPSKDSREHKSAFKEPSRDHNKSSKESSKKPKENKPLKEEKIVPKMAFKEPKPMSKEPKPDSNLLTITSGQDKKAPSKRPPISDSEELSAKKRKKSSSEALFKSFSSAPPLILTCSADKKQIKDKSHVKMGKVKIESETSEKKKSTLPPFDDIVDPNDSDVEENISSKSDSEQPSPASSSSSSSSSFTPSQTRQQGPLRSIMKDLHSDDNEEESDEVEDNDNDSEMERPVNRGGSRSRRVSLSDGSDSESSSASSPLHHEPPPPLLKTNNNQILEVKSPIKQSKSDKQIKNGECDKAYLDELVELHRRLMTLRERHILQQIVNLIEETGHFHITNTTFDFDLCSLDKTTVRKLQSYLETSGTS
RanGTP-Imp inh: inhibitors of RanGTP-importin-beta interaction, primary screen, biochemical, FRET, CFP-Ran, YFP-importin-beta, homogeneous; AID 2216, 2009; 300,000 compounds, 1.1% hits; cell-free CFP-Ran/YFP-importin-beta FRET ratio; inhibition, % (concentration not given with the values);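 active means most replicates above 15%; inconclusive means exactly half above 15%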;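 further: 0% = DMSO wells and 100% = Ran loaded with GDP instead of GTP; wells of about 40 µL received 100 nL stock; the first replicate is given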
ALR inh: inhibitors of human ALR sulfhydryl oxidase, primary screen, biochemical, H2O2 detection, HRP-luminol luminescence, single point; FAD-linked sulfhydryl oxidase ALR (Homo sapiens), P55789; purified ALR, DTT oxidation; inhibition, % (no concentration beside the values); 290,000 compounds, 3.8% hits;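 active means mean and each replicate at 75% or more; inconclusive means only one of the two met; inactive means neither met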;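 further: stock transfer was 7.5 nL into about 7.5 µL; 0% = neutral wells and 100% = wells with inactivated enzyme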
Target sequence (P55789 whole entry, looked up): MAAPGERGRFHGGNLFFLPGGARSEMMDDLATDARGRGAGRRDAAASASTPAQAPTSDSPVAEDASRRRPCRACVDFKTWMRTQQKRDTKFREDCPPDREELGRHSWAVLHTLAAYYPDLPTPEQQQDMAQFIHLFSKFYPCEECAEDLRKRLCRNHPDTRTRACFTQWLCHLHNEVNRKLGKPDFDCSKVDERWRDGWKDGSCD
rRNA inh HTS OD600: second read-out of rRNA inh HTS, no call of its own (marks repeat the call); OD600 change, %; measured here: OD600 growth;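 optical density of the mix in the first replicate; 0 = DMSO median and -100 = no signal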
rRNA inh HTS RFP: also measured in rRNA inh HTS; calls as there; RFP signal change, %; measured here: RFP humanized mutant strains;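 first replicate; 0 = DMSO median and -100 = no signal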
Active calls of the source: *; i = inactive; ? = inconclusive; . = not tested or not shown; & = joins results of further samples. Only part of the results is shown; the hit share may differ from the screen's.

SMILES	Calb FLC	FGF22 binding	T cruzi inh	rRNA inh HTS	rRNA inh HTS OD600	rRNA inh HTS RFP	Beta apoptosis	AF4-AF9 inh	RanGTP-Imp inh	ALR inh
N#Cc1ccc(S(=O)(=O)NC2CCN(Cc3ccccc3)CC2)cc1	12	i	9	.	.	.	2	-0.9	1.3	-3
Cc1c(CC(=O)NCC(=O)O)c(=O)oc2cc3occ(-c4ccccc4)c3cc12	-12	i	-10	-5	14	5.9	1	-10	4.7	.
COc1ccc(CN2CC(C(=O)NCCCN3CCN(Cc4ccccc4)CC3)CC2=O)cc1 (stereo not drawn)	47	.	1	.	.	.	-7	.	-0.3	-1
CCOC(=O)CCCNC(=O)COC(=O)c1cc(Br)c(Br)s1	-10	i	-11	-5	-1	2.5	-2	-2.8	2.7	2
CCN(CCS(=O)(=O)c1ccc(Cl)cc1)C(=O)Nc1ccc(Cl)cc1	-3	i	1	.	.	.	-19	3.6	0.2	-4
CC(=O)Nc1sc(C)c(C)c1C(=O)OCC(=O)N(C)C1CCS(=O)(=O)C1 (stereo not drawn)	7	.	-4	.	.	.	-5	.	-1.8	-1
Cc1ccc(-c2ccc(C(=O)O)o2)cc1Cl	18	i	2	-5	-2	-2.2	-5	27*	-4.3	.
Cc1nnc(SCC(=O)N2CCCC(N3CCN(c4ccc(F)cc4)CC3)C2)o1 (stereo not drawn)	3	i	-6	12	14	2.9	.	-1.4	-2.7	55
Cc1cc(C)nc(SCCn2c(N3CCOCC3)nc3c2c(=O)[nH]c(=O)n3C)n1	3	.	-6	11	13	0.8	1	-0.6	-11	-6
CCOc1ccc(OCCC(=O)OCC(=O)c2c(N)n(C)c(=O)n(C)c2=O)cc1	-1	i	-2	-4	-3	-1.4	-8	6.9	2.3	3
CSc1ccccc1C(=O)NC(C)c1ccc(-n2ccnc2)cc1 (stereo not drawn)	39	i	11	10	14	-1.5	2	1.2	3.2	-11
Cc1ccc(NC(=O)C(C)OC(=O)COc2cccc(C(F)(F)F)c2)cc1 (stereo not drawn)	.	i	.	.	.	.	-1	-1.9	.	-1
N#Cc1ccc(Oc2nc(C(N)=O)cc(-c3ccccc3)n2)cc1	26	.	4	14	12	-2.3	-2	.	1.3	-8
COc1ccc(N(CC(=O)NC2CCCC2)C(=O)Cn2nnc(-c3ccc(OC)c(OC)c3)n2)c(OC)c1	6	i	-10	-2	4	-5.8	5	1.1	0.7	-1
COc1cccc(N2CC34C=CC(O3)C(C(=O)O)C4C2=O)c1 (stereo not drawn)	-5	.	-11	.	.	.	-6	-5.9	?	-13
C/C(=N\NC(=O)C(=O)Nc1ccc(C)c(Cl)c1)c1ccncc1	4	.	-80	.	.	.	21	.	2.2	0
COc1ccc([C@H]2CC(=O)C=C(c3ccc4c(c3)OCO4)C2)cc1	.	i	.	9	-4	-5.1	1	3.8	.	3
COc1ccc(NC(C)C(=O)Nc2cc(C(F)(F)F)ccc2N2CCOCC2)c(OC)c1 (stereo not drawn)	?	i	19	-7	-3	-1.7	-4	26*	0.0	-1
CC(=O)/C(=N\Nc1cccc(Cl)c1)Sc1cccc2cccnc12	-28	.	-19	.	.	.	-1	.	3.8	-3
CCOc1ccc(OCC)c(NC(=O)CCS(=O)(=O)c2ccc(C)cc2)c1	7	i	3	-6	-3	-3.2	.	-0.8	-1.9	.
COc1ccc(NC(=S)NC2CCCC2)c(OC)c1	-1	i	-11	-13	-10	-7.9	-10	3.1	1.7	-6
Cc1sc2ncnc(N3CCC(C(=O)Nc4ccc(Cl)cc4Cl)CC3)c2c1C	7	i	-5	4	0	-0.2	-3	1.2	-3.4	3
C/C(=N\NC(=O)c1cccc([N+](=O)[O-])c1)c1ccco1	-9	i	-2	.	.	.	5	-1.4	0.0	?
CCOC(=O)c1c(NC(=O)c2cccs2)sc(C(=O)N(C)C)c1C	0	.	-35	.	.	.	-1	.	-0.2	-2
COc1ccc(C(C)=O)cc1COC(=O)CCNS(=O)(=O)c1ccc(C)cc1	.	i	-6	-15	-14	-1.4	-9	0.8	1.5	-6
CCN1C(=O)c2ccc(C(=O)O)cc2C1=O	2	.	-24	.	.	.	1	.	2.1	7
CNC(=O)CN1C(=O)NC(Cc2c[nH]c3ccccc23)C1=O (stereo not drawn)	-5	i	-3	10	4	-5.5	-9	2.7	-5.7	1
COc1ccc(OC)c(Nc2ncnc3ccc(Br)cc23)c1	-2	i	5	-1	8	-0.4	-2	-3.6	1.7	-22
Cc1cccc(NC(=O)Cn2cnc3ccc(S(=O)(=O)N4CCC(C)CC4)cc3c2=O)n1	-1	.	19	.	.	.	-5	.	2.4	-5
Cc1cccc(-c2nnn(CC/C(N)=N/O)n2)c1	11	.	-4	.	.	.	-7	.	-1.5	3
CCn1c(=NC(=O)COc2ccccc2)sc2cccc(F)c21	-4	i	-5	6	0	-3.8	7	1.0	-0.3	-8
COc1ccc(N2CC(C(=O)N/N=C/c3ccc(C)cc3)CC2=O)cc1 (stereo not drawn)	-12	i	-35	14	7	0.7	3	-1.2	3.1	-5
COC(C#CCCN(C)C)(c1ccccc1)c1ccccc1	8	.	6	.	.	.	-1	.	0.9	14
CCOC(=O)CNC(=O)c1sc(NC(=O)c2ccccc2)nc1C	6	.	-57	.	.	.	-3	.	2.2	-2
C=CCNc1nc2ccccc2nc1NS(=O)(=O)c1ccc(Cl)cc1	0	i	-10	-21	-34	0.4	10	-3.4	1.7	.
Cc1ccc(NC(=O)c2cc(C(=O)c3cc(Cl)ccc3O)cn(-c3ccc(C)cc3)c2=O)cc1	-3	i	20	10	19	3.4	48	-2.0	?	.
Cc1c(-c2ccccc2)nc(N)c(C#N)c1-c1cccs1	24	.	1	.	.	.	-5	.	2.0	-3
O=C(CSc1nc(=O)n(CCCN2CCOCC2)c2c1CCCC2)Nc1ccc(F)c(F)c1	9	.	15	2	6	3.2	2	-3.1	2.7	10
CC(C)CCOCC1CC2(CC(C)(c3csc(N)n3)OC2=O)C(=O)O1 (stereo not drawn)	-3	.	-7	.	.	.	-3	.	-2.6	-15
CCC(NC(=O)CCc1nnc(-c2cc(C)on2)o1)C12CC3CC(CC(C3)C1)C2 (stereo not drawn)	2	i	24	3	10	3.3	-1	0.8	4.6	-5
COc1cccc(-c2nn(-c3ccc(C)cc3)cc2C(=O)NCC2CCCO2)c1 (stereo not drawn)	-1	i	9	-22	-31	3.1	-2	3.8	-8.4	3
O=C(O)c1c[nH]c(=S)n1-c1ccc(F)cc1	-4	.	1	.	.	.	-9	.	3.1	26
COC(=O)CCS(=O)(=O)c1ccc(Cl)c(Cl)c1	-2	.	-8	.	.	.	0	.	-4.7	-6
NC(=O)C1=C[C@H](c2ccc(Br)cc2)C[C@H](OCc2ccc(CO)cc2)O1	-5	i	-8	-12	-13	9.5	-12	-3.0&-0.8	0.4	.
COc1ccc(CN(C(=O)c2snc(C(N)=O)c2N)C(C)C(=O)NCc2ccc(F)cc2)cc1 (stereo not drawn)	0	i	6	-1	-11	6.1	1	8.5	-0.7	1
O=C(COC(=O)c1ccccc1Cl)Nc1ccc2[nH]c(=O)[nH]c2c1	3	.	-10	7	4	-0.9	-1	-1.1	0.9	-2
COc1ccc(NC(=O)Cc2nnc(SCC(=O)c3ccccc3)n2C)cc1	-26	i	-11	1	6	-1.3	-1	5.6	0.8	0
O=C(NC(=S)Nc1cccc(S(=O)(=O)NC2=NCCC2)c1)c1cc(-c2ccco2)nc2ccccc12	-2	i	6	-6	10	7.5	-5	-11	-2.1	3
CC(=O)c1cc2c(cc1NC(=O)CN1Cc3ccccc3C1=O)OCO2	-4	i	8	-6	-3	-1.0	-7	0.9	2.0	-29
c1ccc(-c2cncnc2)cc1	.	i	.	10	6	4.0	-5	-2.2	.	2
Cn1c(SCC(=O)NCc2ccc3c(c2)OCO3)ncc(C(=O)Nc2ccc(F)cc2)c1=O	-3	i	-16	10	12	-0.2	-3	0.2	-1.7	-14
O=C(N1CCOCC1)N(Cc1ccco1)CC1CCCO1 (stereo not drawn)	-8	.	10	.	.	.	-9	.	-5.8	.
O=C(Nc1cc(S(=O)(=O)N2CCOCC2)ccc1N1CCCCC1)c1cc(-c2ccccn2)nc2ccccc12	30	i	-1	12	4	-2.8	6	-7.0	-1.3	4
CCc1nc2ccccc2nc1N1CCN(S(=O)(=O)c2ccc(Cl)cc2)CC1	5	i	20	3	9	0.5	-1	-7.0	5.0	-2
NC(N)=N/N=C/c1ccc(Cl)cc1Cl	1	i	62*	-21	-22	-1.1	4	3.9	?	6
Cc1ncc([N+](=O)[O-])n1CCOC(=O)NC(Nc1ccc(F)cc1)C(Cl)(Cl)Cl (stereo not drawn)	0	i	-3	-16	-17	-2.9	0	-8.4	0.6	-10
Clc1ccc(-n2nnnc2-c2cnc3ccccc3c2-c2ccccc2)cc1	4	i	.	-21*	-11*	-2.2*	-2	1.2	-1.4	2
c1ccc(Oc2cc(-n3cncn3)ncn2)cc1	9	i	-26	-3	-3	-9.3	-8	-1.4	0.8	1
Cc1ccc(Nc2nc(-c3ccccc3)cs2)nc1	-1	i	44	2	2	2.5	.	2.5	1.4	-10
CCOC(=O)C(=CNc1ccc(C#N)cc1)C(=O)OCC	9	i	-11	-1	-1	-1.6	-3	-0.1	1.4	-11

The results go on.
SMILES	Calb FLC	FGF22 binding	T cruzi inh	rRNA inh HTS	rRNA inh HTS OD600	rRNA inh HTS RFP	Beta apoptosis	AF4-AF9 inh	RanGTP-Imp inh	ALR inh
C=C(C)CNC(=S)N1CCN(C(c2ccccc2)c2ccccc2)CC1	-3	.	35	-3	-4	-5.5	15	0.2	-0.5	.
O=C(COC(=O)Cn1cnc2ccccc21)NCCc1ccccc1	-5	.	8	.	.	.	1	.	-1.6	-10
CCC(=O)Nc1ccc2c(c1)nc(CN1CCCCC1)n2C	43	i	-16	13	15	-4.2	1	-0.1	1.9	-23
NC(=O)c1ccccc1N=Cc1ccc2ccccc2c1	0	i	-8	.	.	.	6	-4.0	4.1	-24
Cc1cc(C)nc(N/N=C/c2sccc2C)n1	0	i	-8	9	11	-3.3	21	0.5	-3.2	.
O=C(NCCCn1ccnc1)c1cn(-c2ccccc2)nc1-c1ccccc1	10	i	1	1&2	-11&-3	-3.5&1.3	1	9.4	4.7	-9
O=C(Nc1ccc(S(=O)(=O)N2CCOCC2)cc1)c1ccccc1Br	-29	i	-20	0	-7	-0.1	.	1.1	-5.2	-8
